Screens from PubChem BioAssay.
CBX7 AlphaScr: inhibitors of human CBX7 binding to H3K27me3 peptide; AlphaScreen His6-CBX7 / biotin-H3K27me3 peptide binding; stronger effect = lower value; normalised signal (fraction of DMSO) (concentration not given with the values); hit rate 1.1% among 66,000; in the data active means normalised signal below about 0.5;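 further: 100 nL library stock added to about 20 µL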
Target sequence (O95931 whole entry, looked up): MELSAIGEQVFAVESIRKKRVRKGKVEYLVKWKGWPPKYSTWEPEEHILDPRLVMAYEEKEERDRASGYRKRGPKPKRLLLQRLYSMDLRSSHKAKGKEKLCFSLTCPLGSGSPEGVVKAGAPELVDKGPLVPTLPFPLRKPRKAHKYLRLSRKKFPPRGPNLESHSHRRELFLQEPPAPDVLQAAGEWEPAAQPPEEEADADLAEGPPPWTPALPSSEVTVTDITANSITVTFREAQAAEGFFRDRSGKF
CBX7 AlphaScr z-score: second read-out of CBX7 AlphaScr, no call of its own (marks repeat the call); z-score; measured here: z-score of CBX7 signal; some inactives read as strong as hits; reference of the scale not given here;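 same signal on another scale; lower means less binding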
Starred values were filed as active, the others as inactive.

Second line of a record – CBX7 AlphaScr	CBX7 AlphaScr z-score
> CCc1ccc(-c2nc(CN3CCCC(C(=O)NC4CC4)C3)c(C)o2)cc1 (stereo not drawn)
  0.99	-0.078
> COc1ccc2nc(C)c(C(=O)Nc3ccccc3C)cc2c1
  0.98	-0.26
> CCCCCCc1c(O)nc(SCCN(C)C)[nH]c1=O
  1	1.7
> Cc1c(C(=O)Nc2ccc(Cl)cc2)sc2ncnc(N3CCOCC3)c12
  1.1	1.6
> CCN1CCN(C(=O)c2ccc3c(c2)N(Cc2ccccc2)C(=O)c2ccccc2S3=O)CC1 (stereo not drawn)
  1	-0.041
> Cc1cccc(CN2C(=O)CSc3ccc(C(=O)NCc4ccc(F)cc4)cc32)c1
  1.1	3.3
> CC1=C(C(=O)Nc2cc(C)ccn2)C(c2ccc(C)cc2)C2=C(CC(C)(C)CC2=O)N1 (stereo not drawn)
  1.4	0.78
> Cc1ccccc1NC(=O)NCCCN1CCN(c2cccc(Cl)c2)CC1
  1.1	2.7
> Cc1ccc(NC(=O)CSc2nccn2-c2ccccc2)c(C)c1
  0.74	-5.7
> COc1ccc(-n2nc(C(=O)NCC(=O)Nc3ccc4c(c3)OCO4)c3ccccc3c2=O)cc1
  1	0.21
> Cc1ccc(S(=O)(=O)C2(C(=O)NCc3ccccc3)CC2)cc1
  0.99	-0.19
> C=CCNC(=O)c1c[nH]c2ccc(S(=O)(=O)N(CC)CC)cc2c1=O
  1	-0.021
> CC1CCCC(NC(=O)C2(C)CCC(=O)N2CCN2CCOCC2)C1C (stereo not drawn)
  1	0.22
> Cc1ccc(CNC(=O)c2cc(=O)[nH]c3ccc(S(=O)(=O)N4CCCCC4C)cc23)cc1 (stereo not drawn)
  1	1.1
> Cc1cccc(-c2nc(Nc3ccc(F)cc3Cl)c3ccccc3n2)c1
  1.1	3.4
> Cc1cc(C)nc(NS(=O)(=O)c2ccc(NC(=O)c3cccc(Br)c3)cc2)n1
  1	0.016
> CCc1cc(-c2[nH]ncc2-c2cscn2)c(O)cc1O
  0.91	-2.3
> CC1(C)OC2c3ccccc3OC3(C)CCC1CC23 (stereo not drawn)
  1.1	0.27
> Cc1ccc(NC(=O)CSc2nccn2-c2ccc(Cl)cc2)cc1Cl
  0.79	-0.75
> COc1ccc(-c2cc3nc(C)c(CCC(=O)NCCCN4CCCC4=O)c(C)n3n2)c(OC)c1
  0.99	-0.092
> Clc1cccc(Nc2nc(-c3ccc(Cl)c(Cl)c3)cs2)c1
  0.76	-3.8
> CC(NC(=O)C1CCC(=O)N1Cc1ccc(F)cc1)c1ccccc1 (stereo not drawn)
  0.99	-0.31
> COc1ccc(OC2C(=O)N(CCc3ccc(OC)c(OC)c3)C2c2ccccc2Cl)cc1 (stereo not drawn)
  0.78	-4.4
> Cc1ccc(NC(=O)C2CCCN(S(=O)(=O)c3cccs3)C2)cn1 (stereo not drawn)
  0.85	-1.7
> COCCCNC(=O)CN1C(=O)COc2ccc(S(=O)(=O)N3CCCC3)cc21
  1.1	1.8
> COc1ccc(Nc2cc(C(=O)NCCCN(C)c3ccccc3)c3ccccc3n2)c(OC)c1
  0.55	-6
> O=C(Nc1cccc(Cl)c1)c1cnc2ccccn2c1=O
  0.91	-1.3
> O=C(O)c1ccc2[nH]c(=O)c(Cc3ccccc3F)nc2c1
  1.1	2.4
> CCOc1cccc(CN2C(=O)c3ccccc3C2C(=O)NCc2cccnc2)c1 (stereo not drawn)
  1	1.3
> CC(CCc1ccccc1)NC(=O)c1ccc(NC2=NC3CS(=O)(=O)CC3S2)cc1 (stereo not drawn)
  0.93	-1.4
> COc1ccc(CCNc2oc(COc3ccc(C)cc3)nc2C#N)cc1
  0.93	-0.089
> C=CCn1c(CCCNC(=O)c2cccs2)nc2ccccc21
  1	0.71
> O=C(COc1ccc(Cl)cc1)NCc1nnc(SCC(=O)N2CCCCCC2)o1
  0.99	-0.12
> Cc1ccc(OCc2nc3ccccc3n2C(C)C)cc1
  0.93	-2.6
> CCCCN(CC)S(=O)(=O)c1ccc2[nH]c(=O)cc(C(=O)NCc3cccnc3)c2c1
  0.98	-0.82
> Cc1sc2ncn(CC(=O)NCCCC(=O)N(C)CCc3ccccn3)c(=O)c2c1C
  0.99	-0.29
> Cc1oc(-c2ccc(Cl)cc2)nc1CN1CCCC(C(=O)NCc2ccccn2)C1 (stereo not drawn)
  1	0.15
> O=C(Cn1nc(Cc2ccncc2)c2ccccc2c1=O)NC1CCN(Cc2ccccc2)CC1
  1.2	2.4
> Cc1ccccc1-c1nc(CN2CCC(C(=O)NC3CCCCC3)CC2)c(C)o1
  0.77	-3.5
> COc1ccc(CNC(=O)c2cn(C3CCCCC3)c(=O)c3c2c2ccccc2n3C)cc1
  1	0.12
> COCCCNc1oc(-c2ccc(C)cc2)nc1C#N
  0.81	-0.22
> COc1cccc2c(Nc3cccc(C(F)(F)F)c3)cc(C)nc12
  1.1	1.3
> CC(=O)Nc1ccc(S(=O)(=O)NCC2CCC(C(=O)NCCc3ccc(Cl)cc3)CC2)cc1 (stereo not drawn)
  1.1	1.1
> O=C1CC(N2CCN(C(c3ccccc3)c3ccccc3)CC2)C(=O)N1CCc1ccccc1 (stereo not drawn)
  0.97	-0.44
> CC(=O)N1CCc2cc(S(=O)(=O)NCC3COc4ccccc4O3)ccc21 (stereo not drawn)
  0.89	-0.42
> Cc1nc2c(C(=O)NC(C)C)cnn2c(C)c1Cc1ccc(Cl)cc1
  0.99	-0.2
> CCCCNC(=O)CSCc1nc(-c2cccc(OC)c2)oc1C
  1.1	1.6
> CCc1c(C)sc(NC(=O)c2cc(-c3ccc(OC)c(OC)c3)on2)c1C#N
  1.4	2.9
> CC(C)Cn1c(COc2ccc(Cl)cc2)nc2ccccc21
  1	0.25
> Cc1c(C(=O)Nc2ccc(F)cc2)sc2ncn(CC(=O)N3CCC(C)CC3)c(=O)c12
  1	0.1
> OC(CN1CCOCC1)Cn1c(C(F)(F)F)nc2ccccc21 (stereo not drawn)
  1	0.041
> Cc1sc(NC(=O)c2ccccc2Br)nc1-c1ccccc1
  0.99	-0.19
> Cn1c(C(=O)N2CCCC(C(=O)NCc3ccc4c(c3)OCO4)C2)cc2sccc21 (stereo not drawn)
  0.89	-3.2
> CCOC(=O)C1CCN(c2cc(C)nc3c(-c4ccccc4OC)c(C)nn23)CC1
  1.1	1.4
> CCc1nc(N2CCN(CC)CC2)c2c3c(sc2n1)CCCC3
  1	-0.012
> Cn1cc(CC(=O)Nc2ccccc2)c2ccccc21
  1.4	3.6
> CCN(CC)CCNC(=O)c1cc(Nc2cccc(SC)c2)nc2ccccc12
  1.1	3.1
> Cc1ccc(OCc2nnc(NC(=O)C(c3ccccc3)c3ccccc3)s2)cc1
  1.2	0.7
> Cc1cccc2c1-c1sc(C(=O)Nc3cccc(Cl)c3)cc1CO2
  1.1	2.3
> Cc1[nH]c2c(C)cccc2c1CCNS(=O)(=O)c1cc(Cl)ccc1Cl
  0.92	-1.7

An excerpt from above in order of number of heavy atoms, highest first.
Second line of a record – CBX7 AlphaScr	CBX7 AlphaScr z-score
> O=C(COc1ccc(Cl)cc1)NCc1nnc(SCC(=O)N2CCCCCC2)o1
  0.99	-0.12
> CCCCNC(=O)CSCc1nc(-c2cccc(OC)c2)oc1C
  1.1	1.6
> Cn1cc(CC(=O)Nc2ccccc2)c2ccccc21
  1.4	3.6

More entries
structure | CBX7 AlphaScr | CBX7 AlphaScr z-score
CC(=O)NCCNC(=O)CCc1nc2sc3c(c2c(=O)[nH]1)CCCC3 | 1.1 | 0.33
Cc1ccc(F)cc1Nc1nc(-c2ccccc2F)nc2ccccc12 | 0.99 | -0.013
Cc1ccc(CSc2nnc(Cc3cc(=O)[nH]c(=O)[nH]3)n2-c2ccc(F)cc2)cc1 | 0.95 | -1.2
CN1CCc2c(n(CC(O)CN3CCCC3)c3ccccc23)C1=O (stereo not drawn) | 0.99 | -0.22
COc1cccc(-c2nc(CS(=O)(=O)CC(=O)NC(C)C34CC5CC(CC(C5)C3)C4)c(C)o2)c1 (stereo not drawn) | 0.96 | -1.2
CCN(CC)C(C)C(=O)NCC1(c2ccccc2)CCOCC1 (stereo not drawn) | 0.97 | -0.37
Cc1oc(-c2cccc(Cl)c2)nc1CS(=O)(=O)CC(=O)NCCCN1CCOCC1 | 0.98 | -1.1
NC(=O)C1(N2CCCCC2)CCN(CC(=O)Nc2ccc(Oc3ccccc3)cc2)CC1 | 0.89 | -1.3
Cc1ccc(OCCn2cnc3cc(C)c(C)cc32)cc1 | 0.77 | -9.1
O=C(CCCN1C(=O)CSc2ncccc21)NCc1ccc2c(c1)OCO2 | 1 | 0.11
CC(NC(=O)Cn1nc(-c2ccc(Cl)cc2)ccc1=O)c1ccccc1 (stereo not drawn) | 1 | 0.11
Cc1cc(C)c(C#N)c(Nc2cccc(C(F)(F)F)c2)n1 | 1.1 | 2.3
COc1ccccc1NC(=O)c1cc(-c2ccccc2Cl)nc2ccccc12 | 0.87 | -0.46
COc1ccc(-c2nc(S(=O)(=O)c3ccc(C)cc3)c(NCc3ccccc3)o2)cc1 | 0.83 | -0.22
Cc1cc(OCC(=O)N(Cc2nc(-c3ccccc3)no2)C(C)C)ccc1Br | 1.1 | 0.41
COCCCNC(=O)c1ccc2c(c1)N(Cc1ccc(F)cc1Cl)C(=O)CS2 | 1 | 0.0042
COCCNC(=O)CN1C(=O)CSc2ncccc21 | 1.1 | 2.1
Cn1cnc2sc(C(=O)NC3CCN(Cc4ccccc4)CC3)cc2c1=O | 1.1 | 2.5
CCn1c(C(=O)N2CCCC(C(=O)NC(C)C34CC5CC(CC(C5)C3)C4)C2)cc2sccc21 (stereo not drawn) | 0.79 | -6.2
Cc1cc(C)cc(-n2ccnc2SCC(=O)Nc2ccc(OC(F)(F)F)cc2)c1 | 0.67 | -13
O=C(NCc1ccccc1)C1CCC(CNS(=O)(=O)c2cccc3cccnc23)CC1 (stereo not drawn) | 1 | 0.52
COc1ccc2c(c1)CCc1c(C(=O)Nc3ccc(OC(F)(F)F)cc3)noc1-2 | 1.1 | 1.7
CCc1ccc(NC(=O)c2ccc3c(=O)n4c(nc3c2)CCCCC4)cc1 | 0.96 | -0.089
Cc1ccc(-c2noc(CCC(=O)N3CCC4(CC3)OCCO4)n2)cc1 | 1.2 | 1.9
CN1CCN(C(=O)c2cc(-c3ccco3)on2)CC1 | 0.99 | -0.32
CCN(CC)C(=O)CN1C(=O)CSc2ccc(S(=O)(=O)N(CC)CC)cc21 | 1 | 1.7
COc1ccc(C(=O)c2oc3ccccc3c2NC(=O)c2ccccc2Cl)cc1 | 1 | 0.055
O=C1Nc2ccccc2OC1CC(=O)N1CCCC1 (stereo not drawn) | 1.1 | 0.43
CCc1cccc(NC(=O)CCc2c(C)nc3cc(-c4ccc(Cl)cc4)nn3c2C)c1 | 0.99 | -0.068
CCOc1ccccc1CN1C(=O)c2ccccc2C1C(=O)NC1CCCCCCC1 (stereo not drawn) | 1.1 | 0.65
Cc1ccccc1NC(=O)C(c1ccccc1)N1CCOCC1 (stereo not drawn) | 1 | -0.1
CCCCCCCNC(=O)CCn1nc(-c2ccc(Cl)cc2)ccc1=O | 1.1 | 1.2
CCOC(=O)c1cc(-c2ccc(N(CC)CC)cc2)no1 | 1.6 | 5.6
CCN(CC)CCn1c(=N)n(CCOc2ccccc2)c2ccccc21 | 0.84 | -2.2
Cc1nnc(NC(=O)CSc2nnc(Cc3cccn3C)n2-c2ccc(F)cc2)s1 | 0.87 | -3
Cc1cccc(OCC(=O)Nc2cccc(-c3nc4ccccc4s3)c2)c1 | 1.1 | 2.1
COc1ccc(Cl)cc1-c1nc(-c2ccc(NC(=O)c3ccc4c(c3)OCO4)cc2)no1 | 1.2 | 2.4
Cc1ccc(-c2cc(C(=O)NCCCn3ccnc3)c3ccccc3n2)s1 | 1 | 0.99
Cc1ccc(CNC(=O)CCC(=O)Nc2ccc3nc(N4CCCCC4)cc(C)c3c2)cc1 | 1 | 0.45
O=C(CN1C(=O)COc2ccccc21)NC1CCCCC1 | 1.1 | 1.2

In the list so far, four contain two or more sulfur atoms:
structure | CBX7 AlphaScr | CBX7 AlphaScr z-score
Cc1ccc(NC(=O)C2CCCN(S(=O)(=O)c3cccs3)C2)cn1 (stereo not drawn) | 0.85 | -1.7
CC(CCc1ccccc1)NC(=O)c1ccc(NC2=NC3CS(=O)(=O)CC3S2)cc1 (stereo not drawn) | 0.93 | -1.4
CCN(CC)C(=O)CN1C(=O)CSc2ccc(S(=O)(=O)N(CC)CC)cc21 | 1 | 1.7
Cc1nnc(NC(=O)CSc2nnc(Cc3cccn3C)n2-c2ccc(F)cc2)s1 | 0.87 | -3

Next structures:
structure | CBX7 AlphaScr | CBX7 AlphaScr z-score
CC(=O)N1c2ccc(S(=O)(=O)N3CCOCC3)cc2CC1C (stereo not drawn) | 0.78 | -0.87
CC1CN(C2CC(=O)N(c3ccccc3)C2=O)CC(C)O1 (stereo not drawn) | 1 | 1.4
Cc1ccc2c(c1)N(CCC(=O)NCCCN1CCCCC1)C(=O)CO2 | 1.1 | 1.4
CC(=O)Nc1ccc(-c2nc(-c3ccccc3)nc3ccccc23)cc1 | 1.1 | 0.51
COc1ccc(-n2ccnc2SCC(=O)Nc2ccc(F)cc2F)cc1 | 0.99 | -0.014
NS(=O)(=O)c1ccc(CCNC(=O)Cc2ccc(-n3c(=O)[nH]c4ccsc4c3=O)cc2)cc1 | 1.1 | 0.28
CCc1ccc2c(c1)c(=O)c(S(=O)(=O)c1ccc(Cl)cc1)cn2CC(=O)Nc1ccccc1C | 0.99 | -0.14
CCOc1ccccc1NC(=O)CCC(=O)Nc1ccc2nc(N3CCOCC3)cc(C)c2c1 | 1.1 | 0.089
Cn1c2ccccc2c2c(C(=O)NCc3cccnc3)cn(C3CCCC3)c(=O)c21 | 0.88 | -0.12
CCCC(=O)NC(C)c1nc2ccccc2n1Cc1c(F)cccc1Cl (stereo not drawn) | 1.2 | 1.8
Oc1cccc(-c2nc(-c3ccccc3)c(-c3ccccc3)[nH]2)c1 | 0.34* | -0.66*
CC(Cc1ccccc1)NC(=O)C1CCCNC1=O (stereo not drawn) | 1.1 | 1.2

These rows are one share of the data. The share of hits here may be higher or lower than overall.
